Compound activity as filed in PubChem BioAssay.
NPYLR7 agonist: mosquito NPYLR7 agonism | HEK293T NPYLR7/Galpha15, GCaMP6s calcium fluorescence | 0.15% of 270,000 active | AID 1259423 | activation, % at 10 µM; in the data active = activation above about 40%;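 also: 0% = vehicle and 100% = reference agonist at the receptor; some compounds past the cut are filed as inactive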
NPYLR7 agonist max-min: second read-out of NPYLR7 agonist, no call of its own (marks repeat the call); activation, %; measured here: Max-Min RFU normalised activation; some inactives read as strong as hits;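 span of the calcium signal over five minutes; 0% = vehicle and 100% = native peptide agonist; compound fluorescence can raise it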
Numbers without * were called inactive; & = joins results of further samples. A portion of the library; the hit share may differ from the screen's.

A first look (five entries):
SMILES	NPYLR7 agonist	NPYLR7 agonist max-min
Cn1cc(CC2CC(=O)N(CC(O)c3c(F)cccc3F)C2=O)cn1 (configuration not stated)	-1	1
CC(C)CN1CC(C(=O)N(C)Cc2cc(C3CC3)n[nH]2)CC1=O (configuration not stated)	17	14
CSc1nsc(SCc2ccc(C(=O)N3C4CCC3CC(Oc3cccc(C(F)(F)F)c3)C4)cc2)n1 (configuration not stated)	4	-4
C=Cc1cccc(CN2CCCC(CCNC(C)=O)C2)c1 (configuration not stated)	1	0
C=CCNC(=O)C1CCC(c2ccc(F)c(C)c2)N(C(=O)C2CC2)C1 (configuration not stated)	4	2

Main list, from the first entry:
SMILES	NPYLR7 agonist	NPYLR7 agonist max-min
Cn1cc(CC2CC(=O)N(CC(O)c3c(F)cccc3F)C2=O)cn1 (configuration not stated)	-1	1
CC(C)CN1CC(C(=O)N(C)Cc2cc(C3CC3)n[nH]2)CC1=O (configuration not stated)	17	14
CSc1nsc(SCc2ccc(C(=O)N3C4CCC3CC(Oc3cccc(C(F)(F)F)c3)C4)cc2)n1 (configuration not stated)	4	-4
C=Cc1cccc(CN2CCCC(CCNC(C)=O)C2)c1 (configuration not stated)	1	0
C=CCNC(=O)C1CCC(c2ccc(F)c(C)c2)N(C(=O)C2CC2)C1 (configuration not stated)	4	2
O=C(O)CCc1ncc(-c2ccc(Cl)cc2)o1	-1	2
Cc1ccccc1N1CCN(c2ncccc2CNC(=O)c2cscn2)CC1	5	5
O=c1ccnc2sc(NC3CCCCC3c3ccc(C(F)(F)F)cc3)nn12 (configuration not stated)	6	6
COc1ccc(OC)c(C=CC(=O)Oc2ccc(C(F)(F)F)cc2)c1	-1	-2
Cc1nc(COc2ccc(Oc3nccs3)cc2)oc1C	10	7
O=C(NCC(F)(F)F)C1CCCN(C2CCN(C(=O)C3CC3)CC2)C1 (configuration not stated)	4	-8
CC(NC(=O)Cc1csc(-c2ccsc2)n1)c1ccc(S(N)(=O)=O)cc1 (configuration not stated)	2	2
COc1cc(OC)cc(-c2nc(-c3ccncc3)no2)c1	14	10
COc1ccc2c(c1)OC(C)CN(CC(=O)NC(c1ccncc1)c1ccc(F)cc1)C2 (configuration not stated)	-2	-9
COCCN(CCC(=O)NCc1cccc(C(F)(F)F)c1)c1nc(Cc2ccccc2)ns1	-7	4
COC(=O)c1c(C)[nH]c(C(=O)C(C)OC(=O)CCC(=O)c2cc(C)sc2C)c1C (configuration not stated)	-3	-2
COc1cccc(-c2ccccc2NC(=O)C2CCN(Cc3ccc(OC)c(C)c3)CC2)c1	8	2
CCOC(=O)c1nn(-c2ccc(F)cc2)c(=O)c2c(NC(=O)COC)scc12	4	-1
CCN1CCC(N(C)Cc2nc3c(F)cccc3[nH]2)CC1C (configuration not stated)	-1	-2
Cc1cc(C)nc(NS(=O)(=O)c2ccc(NC(=O)c3ccco3)cc2)n1	-1	0
CCOC(=O)N1CCC(NCc2cc3ccc(Cl)cc3n(CCOc3ccccc3)c2=O)CC1	18	11
CCN(Cc1ccoc1)C(=O)NC(C)c1ccc(F)cc1F (configuration not stated)	7	5
Cc1ccc(-c2ccccc2C(=O)O)cc1	0	0
Cc1cc(C)n(CC(=O)NCc2ccccc2CN2CCC(C)CC2)n1	5	1
O=C(NNS(=O)(=O)c1cccc(Cl)c1)c1ccc2c(=O)n3c(nc2c1)CCC3	3	9
Cc1cc(=O)n(C2CCS(=O)(=O)C2)[nH]1 (configuration not stated)	1	58
COc1ccc(OCCCSCC(=O)Nc2ccc(Br)cc2Br)cc1	11	16
COCCN1CC(C(=O)NCCc2nc(-c3ccccc3)cs2)CCC1=O (configuration not stated)	20	6
COc1ccc(S(=O)(=O)Nc2ccc(Nc3ccc(-n4ccc(C)n4)nn3)cc2)cc1OC	-3	-9
CCO[C@H]1COC[C@@H]1NC(=O)C(=O)N1CCc2ccccc21	3	1
O=C(Cn1c(-c2ccccc2)cc(=O)n2ncnc12)NNC(=O)Nc1cccc(C(F)(F)F)c1	4	2
CCOC(=O)NC(=O)COC(=O)c1cccs1	11	8
O=C(C=Cc1ccccc1Cl)c1ccc([N+](=O)[O-])cc1	6	5
Cc1ccc(CNC(=O)C2CCC(=O)N(Cc3ccccn3)C2)s1 (configuration not stated)	0	1
N#Cc1c(-c2ccccc2F)c(C#N)c2nc3ccccc3n2c1N	3	-1
COC(=O)CNC(=O)Cn1cnc2ccccc2c1=O	17	6
Cc1cc(NC(=O)COc2cccc([N+](=O)[O-])c2)no1	0	0
Cc1cn2c(n1)C(CNCc1cnn(C(C)(C)C)c1)CCC2 (configuration not stated)	0&12	-2&14
C/C(=C/C(=O)N1CCCOC2CCCC21)c1ccccc1 (configuration not stated)	-1	45
O=C1N=C(N2CCOCC2)SC1=Cc1ccccc1F	5	4
Oc1ccccc1/C=N\Nc1nn2cnnc2c2ccccc12	-4	-5
COc1ccccc1NC(=O)C1=C(C)NC(=O)NC1c1ccccc1Br (configuration not stated)	-1	-4
COc1ccc(C(=O)N2CCCC(OCc3cccc(OC)c3)C2)cc1 (configuration not stated)	-2	4
COc1ccc(NC(=O)Cc2ccccc2F)cc1Cl	0	0
Cc1ccc(CN2CCN(C(=O)c3n[nH]c4c3CCC4)C(C)C2=O)cc1 (configuration not stated)	-7	-7

Of the compounds above, five have an NH in an aromatic ring:
SMILES	NPYLR7 agonist	NPYLR7 agonist max-min
CC(C)CN1CC(C(=O)N(C)Cc2cc(C3CC3)n[nH]2)CC1=O (configuration not stated)	17	14
COC(=O)c1c(C)[nH]c(C(=O)C(C)OC(=O)CCC(=O)c2cc(C)sc2C)c1C (configuration not stated)	-3	-2
CCN1CCC(N(C)Cc2nc3c(F)cccc3[nH]2)CC1C (configuration not stated)	-1	-2
Cc1cc(=O)n(C2CCS(=O)(=O)C2)[nH]1 (configuration not stated)	1	58
Cc1ccc(CN2CCN(C(=O)c3n[nH]c4c3CCC4)C(C)C2=O)cc1 (configuration not stated)	-7	-7

Carrying on.
SMILES	NPYLR7 agonist	NPYLR7 agonist max-min
Cc1cc(C(=O)COC(=O)C23CC4CC(CC(O)(C4)C2)C3)c(C)n1C	-6	11
CCCCn1c(=O)[nH]c(=O)c2c1nc(-c1ccncc1)n2CCC	14	5
C[C@H]1COC(C#N)CN1Cc1ccccc1 (some centres not stated)	33	21
Cc1ccc2[nH]c(C(=O)N3CCCC3c3cc(C)no3)c(C)c2c1 (configuration not stated)	5	4
COc1ccc(Cl)cc1-c1csc(-c2cc3ccc(OC(C)=O)cc3oc2=O)n1	7	5
COc1cc2c(cc1OC)CN(c1cc(C(=O)NCc3ccccc3F)c3ccccc3n1)CC2	8	-1
Cc1cc(Nc2ccc3c(n2)C(=O)N([C@H](C)C(=O)NC(C)C)C3)n(C)n1	10	3
Cn1cc(C(=O)N2CCCC(O)(CO)CC2)c2ccccc21 (configuration not stated)	17	14
COCCNC(=O)c1c(C(F)(F)F)nn(C2CCCN(C(C)C)C2)c1C (configuration not stated)	13	4
COc1ccc(/C=C2/SC(=S)N(CCC(=O)Nc3ccccc3)C2=O)cc1	-6	-13
CCCOC(=O)C1=C(C)NC2=C(C(=O)CC(c3ccccc3)C2)C1c1ccc(OCC)c(OC)c1 (configuration not stated)	4	2
COc1cccc(-c2nnc(-c3cc4ccccc4oc3=O)o2)c1	-4	-4
C=CCn1c(CCCNC=O)nc2ccccc21	1	-4
Cc1c(N2C(=O)c3cccc4c(Cl)ccc(c34)C2=O)c(=O)n(-c2ccccc2)n1C	6	10
COc1ccccc1N1CCN(C(=O)c2cc(Cl)ccc2O)CC1	0	1

Full records from above. Order of values: NPYLR7 agonist, NPYLR7 agonist max-min
Entry for `COc1ccccc1N1CCN(C(=O)c2cc(Cl)ccc2O)CC1` : 0, 1
Entry for `CCCOC(=O)C1=C(C)NC2=C(C(=O)CC(c3ccccc3)C2)C1c1ccc(OCC)c(OC)c1` (configuration not stated) : 4, 2
Entry for `CCCCn1c(=O)[nH]c(=O)c2c1nc(-c1ccncc1)n2CCC` : 14, 5
Entry for `COc1cc2c(cc1OC)CN(c1cc(C(=O)NCc3ccccc3F)c3ccccc3n1)CC2` : 8, -1

Additional compounds follow:
SMILES	NPYLR7 agonist	NPYLR7 agonist max-min
COCCOC1CCCN(C(=O)c2ccc([N+](=O)[O-])cc2)C1 (configuration not stated)	-2	0
C=C(C)COc1ccccc1C(=O)Nc1cccc(NC(=O)CC)c1	5	0
Cc1nc(-c2ccc(S(=O)(=O)N3CCSC3)cc2)co1	13	10
CC(=O)C1=C(O)CC(C)(O)C(C(C)=O)C1C (configuration not stated)	-3	-7
CCOC(=O)N1CCN(C(=O)CCc2nnc(Cc3ccc(-c4ccccc4)cc3)o2)CC1	0	-4
Cc1ccc(F)cc1NC(=O)c1cc(S(=O)(=O)N2CCOCC2)cn1C	-4	-6
O=C1C(=Cc2ccccc2)SC(=S)N1N=Cc1ccccc1	-1	-5
Cc1ccc(-c2cc(C(=O)N3CCN(C)CC3)c3c(C)nn(C4CCS(=O)(=O)C4)c3n2)cc1 (configuration not stated)	2	9
Cc1ccc(NC(=O)c2cc(-c3ccc(C)o3)nn2-c2cccc(Cl)c2)cc1	0	6
COC(=O)CCc1c(C)nn(-c2ccc(C(=O)NC3CCCC(C)C3)cc2)c1C (configuration not stated)	22	13
CCOC(=O)C1=C(O)/C(=C\c2cccc(C)c2O)SC1=Nc1ccc(OC)c(OC)c1	5	3
CC(C)(C)c1cc(NC(=O)C2CCC2)n(-c2ccc(Br)cc2)n1	18	22
Cn1ncc(Oc2ccc(Cl)cc2)c(Nc2cccc(C(=O)NC3CC3)c2)c1=O	4	14
Fc1ccc(-c2cncnc2)c(Cl)c1	-3	-7
COc1ccc(CCOC(=O)C2CCCCN2C(=O)c2ccc(Cl)c(Cl)c2)cc1OC (configuration not stated)	6	1
COc1ccc(CCN(Cc2ccc(C)o2)C(=O)CN(CC2CCCO2)C(=O)c2ccc(Cl)cc2)cc1OC (configuration not stated)	2	21
CN(Cc1csc(-c2cccs2)n1)Cc1nc(-c2ccc3c(c2)OCO3)no1	0	-15
CCOc1ccccc1C(=O)N1CCC(c2nc(-c3ccc(C(F)(F)F)cc3)no2)CC1	7	21
Cc1cc[n+]2cc(C)n(Cc3cccc(F)c3)c2c1	17	12
Cc1cnn(C2CCN(C3CCCN(c4ccccc4)C3=O)CC2)c1 (configuration not stated)	8	5
CCCCn1c(SCC2CCCCO2)nc2ccccc21 (configuration not stated)	-4	-5
CCOC(=O)c1[nH]c(COC(=O)CCC2CCCC2)c(C(=O)OCC)c1C	3	11
N#Cc1cccc(C=C2N=C(c3cccc(F)c3)OC2=O)c1	-1	13
CCC(C)N(Cc1cccc(F)c1)CC(O)COCC(C)C (configuration not stated)	23	18
CC(=O)c1ccc(NC(=O)N[C@H]2C[C@@](O)(C(=O)N[C@@H](Cc3ccc(O)cc3)C(N)=O)C[C@@H](O)[C@@H]2O)cc1	-5	-17
CCCNC(=O)Cn1nc2c(c1NC(=O)C1c3ccccc3Oc3ccccc31)CSC2	-2	5
O=C(N/N=C\c1c(O)ccc2oc3c(c12)CCCC3)c1cc(=O)[nH]c2ccccc12	2	10
CCN(CC)S(=O)(=O)c1ccc(Cl)c(C(=O)Nc2ccc(OC)cc2)c1	0	-6
COc1ccc(CCC(=O)Nc2nn(C)c3c2CC(C)C(=O)N3)cc1 (configuration not stated)	-18	-21
Cc1ccc(NC(=O)Cn2c(-c3nnc(C(C)C)o3)cc3ccccc32)cc1	-4	-4

Quoted at random: 3 entries already listed, in no set order.
SMILES	NPYLR7 agonist	NPYLR7 agonist max-min
CN(Cc1csc(-c2cccs2)n1)Cc1nc(-c2ccc3c(c2)OCO3)no1	0	-15
Cc1ccc(NC(=O)Cn2c(-c3nnc(C(C)C)o3)cc3ccccc32)cc1	-4	-4
COc1ccc(CCC(=O)Nc2nn(C)c3c2CC(C)C(=O)N3)cc1 (configuration not stated)	-18	-21

Other records:
SMILES	NPYLR7 agonist	NPYLR7 agonist max-min
CC(=O)N1CCC(NC(=O)c2ccc(Cl)c(NC(=O)c3cccs3)c2)CC1	6	2
OCc1nc2ccccc2s1	6	12
CCN1CCCC1CNC(=O)c1cc(S(N)(=O)=O)ccc1OC (configuration not stated)	-1&-5	-3&29
OCc1cc(Br)cc(Br)c1O	-6	-5
COc1ccc(-c2nc(Cn3cc(C)cn3)c(C)o2)c(C)c1C	-1	-2
